Source: PubChem BioAssay
Sfp PPTase inh = inhibitors of Bacillus subtilis Sfp phosphopantetheinyl transferase; Biochemical Sfp PPTase activity, qHTS; Potency, µM, for inactives: max response, negative = inhibition, most hits filed as inhibitors; 310,000 compounds, 3.5% hits; AID 1490; active = well fitted inhibition curve with a large enough effect; inconclusive = small, poorly fitted or top-dose-only effect, or another doubt; inactive = no such curve, though single readings can be large or run the other way;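 note: the enzyme is Sfp with the accession as filed and its product quenches rhodamine fluorescence; potency is the fitted concentration of half-maximal effect; 0% = enzyme reaction without inhibitor and -100% = no enzyme wells; top concentration of the series not given in the record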
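Reaction rates are the 30-min fluorescence difference (ex 525, em 598 nm) in wells containing 15 nM Sfp, 5 uM rhodamine-CoA and 12.5 uM BHQ-2-YbbR at pH 7.6 with 10 mM MgCl2.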
Menin MLL FP FL = menin-MLL binding inhibition, fluorescein peptide; Fluorescence polarization, fluorescein-MLL peptide displacement from menin; FP activity change, % at 61.4 µM; 290,000 tested, under 10 active; AID 1766; inconclusive = falling polarisation curve, or a change in total fluorescence; inactive = total fluorescence flat and polarisation flat or rising; no compound was filed as active; the % refers to the polarisation; negative = inhibition;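 note: % of control where 0% means no effect; inhibitors lower the polarisation; unlabelled MLL peptide was the positive control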
CtBP-E1A inh = blocks the CtBP interaction with E1A; 340,000 compounds, 0.49% hits; AID 651724; activity change, % (test concentration not listed); AlphaScreen GST-E1A/His-CtBP binding, 1536-well; stronger effect = lower value; control for the full effect not named in the record; in the data active means activity change below about -65%; inconclusive means about -30% to -65%; inactive means above about -30%; note: % is set by controls: 0 for no effect and ±100 for the full control effect
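Steps: dispense buffer (Tris pH 8.0, NaCl 300 mM, TCEP 1 mM, BSA, Tween 20); add 5X protein mix (GST-E1A, His-CtBP, 125 nM each); pin 23 nL compound; 2 h at 37 °C, dark; add 5X beads (50 ug/mL); 1 h; read.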
gsp ag = activates gsp, the McCune-Albright syndrome mutation | 340,000 compounds, 0.13% hits | Potency, µM (top dose mostly 76.9 µM), without a hit: at the top dose activation (cAMP increase), actives largely listed as activators | gsp mutant cells, cAMP HTRF, 30 min; control for the full effect not named in the record | AID 624287; active = well fitted activation curve with a large enough effect; inconclusive = small, poorly fitted or top-dose-only effect, or another doubt; inactive = no such curve, though single readings can be large or run the other way; cell line not stated here;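 note: phosphodiesterase inhibitor Ro 20-1724 added with compounds to block cAMP breakdown; potency is the fitted concentration of half-maximal effect; nearly all actives have a fitted effect of over 60% in size; about a fifth of the inactives were tested at one dose only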
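Cells in DMEM/10% FBS with G418 were pretreated with compounds in DMSO plus […] (300 uM stock) for 30 min at 37C. cAMP was measured by HTRF (cAMP-d2 plus anti-cAMP antibody-K) after 30 min at room temperature.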
gsp antag = gsp mutant antagonism; gsp-mutant cells, cAMP HTRF, 30 min; control for the full effect not named in the record; Potency, µM (top dose mostly 76.9 µM), for the others: top-dose activity change, negative = inhibition, usual class: inhibitors; 340,000 compounds, 0.4% hits; AID 624288; active = falling curve of any shape with a large fitted effect; inconclusive = falling curve, mostly with a smaller effect; inactive = flat or rising curve; cell line not stated here;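 note: intracellular cAMP measured with PDE inhibitor Ro 20-1724 present during compound exposure; potency is the fitted concentration of half-maximal effect; % is set by controls: 0 for no effect and ±100 for the full control effect; nearly all actives have a fitted effect of over 65% in size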
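Measurement of cellular cAMP by homogeneous time-resolved fluorescence following a 30 min compound exposure at 37C. The PDE inhibitor […] was present throughout; the assay buffer was DPBS with 0.05% BSA and 0.005% Tween 20.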
ClpP mod = qHTS Assay for Activators of ClpP; Potency, µM (doses to about 57.5 µM), inactives show top-dose activity change, negative = active; 340,000 compounds, 1.9% hits; purified B. subtilis ClpP, FRET peptide cleavage, 20 min; ATP-dependent Clp protease proteolytic subunit (Bacillus subtilis (strain 168)), P80244; active = well fitted falling curve with a large enough effect; inconclusive = small, poorly fitted or top-dose-only effect; inactive = no such curve, though single readings can be large or run the other way; note: potency is the fitted concentration of half-maximal effect; the source files actives as falling curves though it sought activators and does not explain the sign; nearly all actives have a fitted effect of over 65% in size; many hits overshoot -100%
Target sequence (P80244 whole entry, looked up): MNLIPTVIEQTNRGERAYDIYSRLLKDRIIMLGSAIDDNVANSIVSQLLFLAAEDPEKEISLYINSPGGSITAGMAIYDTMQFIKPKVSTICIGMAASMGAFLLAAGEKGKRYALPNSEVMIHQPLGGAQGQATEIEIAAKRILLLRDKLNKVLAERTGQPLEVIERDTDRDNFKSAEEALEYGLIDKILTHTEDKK
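FRET quenching reversal measured ClpP activation: 10 microg/mL B. subtilis ClpP at pH 8 with the FRET-FV decapeptide, read at 430 nm after 320 nm excitation. The 20-min minus 0-min signal was scaled between DMSO/no-enzyme wells and ADEP (5.8 microM final).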
TRPV1 PAM = potentiators of human vanilloid receptor 1 (TRPV1) | potentiation, % at 8.33 µM | 320,000 compounds, 0.02% hits | AID 540277 | TRPV1-expressing cells, Fluo-8 calcium influx, capsaicin EC20 potentiation; host cell line not named in the record; control for the full effect not named in the record | Q8NER1; active means potentiation above 80%; inconclusive means 30% to 80%; inactive means below 30%; note: 0% is about no effect
Target sequence (Q8NER1 whole entry, looked up): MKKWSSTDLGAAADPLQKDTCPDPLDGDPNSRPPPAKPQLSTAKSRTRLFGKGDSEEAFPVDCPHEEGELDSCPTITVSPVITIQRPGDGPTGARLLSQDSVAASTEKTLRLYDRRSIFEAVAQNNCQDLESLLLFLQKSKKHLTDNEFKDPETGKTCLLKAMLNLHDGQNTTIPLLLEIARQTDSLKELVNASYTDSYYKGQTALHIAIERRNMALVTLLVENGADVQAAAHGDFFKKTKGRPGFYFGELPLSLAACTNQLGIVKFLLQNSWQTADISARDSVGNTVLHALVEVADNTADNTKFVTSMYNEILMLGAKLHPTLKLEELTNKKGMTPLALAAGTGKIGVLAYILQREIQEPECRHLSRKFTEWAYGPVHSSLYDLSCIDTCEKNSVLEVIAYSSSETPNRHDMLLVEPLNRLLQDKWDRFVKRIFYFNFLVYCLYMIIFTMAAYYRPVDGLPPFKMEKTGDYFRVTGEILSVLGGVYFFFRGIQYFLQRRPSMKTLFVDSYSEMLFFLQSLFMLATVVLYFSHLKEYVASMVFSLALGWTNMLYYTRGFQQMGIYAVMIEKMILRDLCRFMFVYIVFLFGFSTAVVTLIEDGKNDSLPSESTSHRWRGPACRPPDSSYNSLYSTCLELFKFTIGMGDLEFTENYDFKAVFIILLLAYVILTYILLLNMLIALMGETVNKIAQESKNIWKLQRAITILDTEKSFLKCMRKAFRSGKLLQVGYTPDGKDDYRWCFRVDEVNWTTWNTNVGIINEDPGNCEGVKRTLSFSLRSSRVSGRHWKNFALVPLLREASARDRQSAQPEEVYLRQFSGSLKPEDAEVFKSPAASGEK
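Fluo-8 calcium influx in TRPV1-expressing cells, kinetic read (ex 480/em 520 nm). Compound added and read 3 min for agonist activity, followed by capsaicin at EC20 final and 2 min further read for enhancement.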
An asterisk follows results filed as active; ? = inconclusive; . = no result given; ! = a repeat was not active; [ ] = remark or other dose.

SMILES	Sfp PPTase inh	Menin MLL FP FL	CtBP-E1A inh	gsp ag	gsp antag	ClpP mod	TRPV1 PAM
CC(C)(C)OC(=O)N1CCN(Cc2ccc(F)c(B(O)O)c2)CC1	.	.	0	.	-7%	-2.3%	.
O=C(Cc1ccccc1)N(c1ccccc1)c1ccccc1	.	.	6	?	-7%	1.1%	.
O=C1NC(=Nc2cccc([N+](=O)[O-])c2)SC1(CO)CO	-4%	-4.9	-2	-30%[inhibitor]	3%	-0.8%	-20
COc1cccc(-c2nc(CS(=O)(=O)CC(=O)NCCC(C)C)c(C)o2)c1	20%	-1.9	-13	?	-9%	-6.9%	-11
COCCNC(=O)C(c1ccccc1)N(CCOC)C(=O)Cn1nnc2ccccc21 (centres undefined)	9%	4.6	1	-5%	12%	-2.3%	2
C=CCc1c(C)nc2c(OC)cccc2c1Cl	13%	3.4	0	-1%[15.4 µM]	-2%	-0.7%	20
COCCn1c(SCc2ccc(OC)c(F)c2)nc2ccccc2c1=O	-2%	0.4	32	-7%	-1%	1.2%	3
CCC1(C)NC(=O)N(CC(=O)c2cc(C)n(C3CC3)c2C)C1=O (centres undefined)	.	.	-2	-14%[15.4 µM]	0%	.	-9
Cc1ccc(S(=O)(=O)N2CCN(C(=O)CC3CCCC3)CC2)cc1	7%	5.0	9	-55%[inhibitor]	-1%	3.9%	-26
CCc1ccc2nc(N(CCCN(C)C)C(=O)c3ccc(S(=O)(=O)N4CCCc5ccccc54)cc3)sc2c1	35µM*	1.3	3	-5%[15.4 µM]	14%	-4.1%	-15
CCOC(=O)C1=C(c2ccccc2)N(C)C(=O)NC1c1ccc(OC(F)F)c(OC)c1 (centres undefined)	6%	-1.7	1	-9%	-4%	-20%	-9
CC(Oc1ccc(F)cc1)C(=O)Nc1cc(S(=O)(=O)N2CCCCC2)ccc1N1CCOCC1 (centres undefined)	.	.	-13	-4%[15.4 µM]	-5%	.	-8
COc1ccc(/C=N/OCC(=O)Nc2ccc3c(c2)OCO3)c(OC)c1	2%	4.9	-24	23%[15.4 µM]	-8%	.	15
CC1CCC/C(=C\Nc2ccc(O)cc2)C1=O (centres undefined)	45µM*	2.8	9	-36%	4%	-0.1%	-13
CCN(CC1COc2ccccc2O1)C(=O)CN1C(=O)NC(C)(c2ccccc2)C1=O (centres undefined)	.	.	-14	-3%	2%	-1.8%	-2
Cc1cc(C(=O)COC(=O)Cc2ccc(Br)cc2)c(C)n1C	.	.	-13	-30%	4%	-0.3%	0
COCCCNC(=O)c1c(N)n(/N=C/c2cccnc2)c2nc3ccccc3nc12	14%	2.8	-3	-4%[15.4 µM]	-14%	2.5%	-4
O=C(OC(C(=O)NCc1ccc2c(c1)OCO2)c1ccncc1)c1ccc(Cl)nc1 (centres undefined)	16%	1.9	0	0%[15.4 µM]	4%	.	-4
CCCCNC(=O)CSc1nnc(Cc2ccc(Cl)c(Cl)c2)c(=O)[nH]1	19%	2.7	-18	0%	1%	-2.0%	?
CCOc1cc(/C=C2/C(=N)N3OC(C)=CC3=NC2=O)ccc1OCCOc1ccccc1	10%	14	-5	4%	-8%	?	1
NC(=O)c1oc2ccccc2c1NC(=O)c1ccco1	2%	0.6	-18	6%	-7%	3.3%	-4
CCN1CCN(C(=O)c2ccc(OCC(=O)Nc3ccc(F)cc3)c(OC)c2)CC1	9%	0.7	-8	-11%[15.4 µM]	4%	.	-13
Cc1cc(C)c(C#N)c(SCc2nnc(-c3ccccc3[N+](=O)[O-])o2)n1	5%	7.2	-4	1%[15.4 µM]	-25%	.	9
COc1cc(C(=O)Oc2ccccc2/C=N/NC(=O)c2ccc(Cl)cc2)cc(OC)c1OC	21%	1.7	?	-19%	-16%	-2.1%	5
O=C(Nc1ccccc1Cl)c1ccccc1S(=O)(=O)c1ccccc1[N+](=O)[O-]	8%	-0.2	-9	3%	-2%	-3.7%	-9
CC(NC(=O)c1ccco1)c1nc(-c2ccccc2)no1 (centres undefined)	15%	6.8	3	-1%	6%	0.9%	30
CC1(C)CC(=O)CC(C)(C)N1OC(=O)c1ccccn1	0%	1.1	8	-31%[inhibitor]	5%	1.4%	8
CCCn1c(SCC(=O)NCCc2ccccc2)nnc1-c1cccnc1	-1%	0.7	-6	7%	0%	-0.6%	3
O=C(Nc1nccs1)c1ccc(Br)o1	1%	2.9	12	-6%	3%	-1.9%	5
C=CCn1cnc2scc(-c3ccccc3)c2c1=O	11%	1.0	-3	0%	4%	0.2%	7

For convenience, some entries already given.
SMILES	Sfp PPTase inh	Menin MLL FP FL	CtBP-E1A inh	gsp ag	gsp antag	ClpP mod	TRPV1 PAM
CC1(C)CC(=O)CC(C)(C)N1OC(=O)c1ccccn1	0%	1.1	8	-31%[inhibitor]	5%	1.4%	8
CCCn1c(SCC(=O)NCCc2ccccc2)nnc1-c1cccnc1	-1%	0.7	-6	7%	0%	-0.6%	3

(listing goes on)
SMILES	Sfp PPTase inh	Menin MLL FP FL	CtBP-E1A inh	gsp ag	gsp antag	ClpP mod	TRPV1 PAM
CCOCCCNS(=O)(=O)c1ccc2c(c1)oc(=O)n2CC(=O)OCC	11%	1.5	6	11%	5%	-0.5%	0
Cc1ccc(NC(=O)Cn2c(=O)c3cccn3c3ccccc32)cc1	-7%	.	14	2%	8%	-1.8%	?
O=C(Cn1ccc(C(F)(F)F)n1)N/N=C/c1ccc2c(c1)OCO2	17%	1.3	-18	7%	4%	9.5%	6
Cc1ccc(-c2csc(/C=C3\SC(C)C(=O)N3CC(=O)Nc3ccccc3F)n2)cc1 (centres undefined)	5%	1.0	6	-4%	-23%	6.2%	-9
CC1CCCCC1NC(=O)C1CCN(C(=O)c2sccc2-n2cccc2)CC1 (centres undefined)	?	-1.6	2	-25%	-6%	2.4%	-13
CCCN(CCC)CCCNC(=O)c1cc2c(-c3ccc(OC)c(OC)c3)nn(C)c2s1	-6%	0.5	?	?	5%	?	3
C/C=C/C(=O)N1CC2(CC(c3cccc(NC(=O)CC)c3)=NO2)C[C@H]1C(N)=O (some centres undefined)	-6%	1.1	-12	.	-3%	-8.1%	-9
NC(=O)c1cc(C(N)=O)nc(Cl)n1	8%	0.6	.	-41%	-5%	0.9%	12
CS(=O)(=O)N1CCN(c2ccc(NC(=O)CSc3ccc(Cl)cc3)cc2)CC1	23%	1.8	4	4%	4%	0.3%	4
CCOc1ccc(NC(=O)CN(c2ccc(OCC)cc2)S(=O)(=O)c2c(C)[nH]c(=O)[nH]c2=O)cc1	-2%	0.0	-25	2%	2%	0.7%	1
COc1ccccc1Cn1c(C(C)C)nc2ccccc21	0%	1.2	.	13%	-2%	-2.6%	1
CCN(C(=O)CSc1nc2cc(Cl)ccc2c(=O)n1CC(C)C)C1CCS(=O)(=O)C1 (centres undefined)	.	.	-3	8%[15.4 µM]	11%	0.7%	1
CCCCC1=CC2=CC(=O)C(C)(OC(=O)C3CCCC3)C(=O)C2=CO1 (centres undefined)	71µM*!	?	.	-33%[inhibitor]	4%	6.7%	20
Cc1ccc(Cl)cc1N1CCN(C(=O)CN(C2CCCCC2)S(C)(=O)=O)CC1	8%	-1.5	0	7%	?	0.1%	-24
COC(=O)c1ccc(COc2cc(C)ccc2C)o1	6%	-1.1	.	-55%	-3%	-1.8%	30
CC[C@H](C)[C@H](NC(=O)OCc1ccccc1)C(=O)OCC(=O)N(C)CC(=O)Nc1ccccc1Cl	.	.	11	-1%	-21%	-1.0%	-6
C=CCn1c(SCc2nc3ccccc3c(=O)[nH]2)nc2sc3c(c2c1=O)CCCC3	-6%	0.3	2	-2%	12%	-0.7%	-5
Cc1ccc(Cn2c(SCC(C)C)nc3c2c(=O)n(C)c(=O)n3C)cc1	?	3.8	-4	13%	13%	-0.9%	4
CC1CC(C)CN(c2ccc([N+](=O)[O-])nc2)C1 (centres undefined)	6%	-1.7	-4	2%	5%	1.2%	-6
COc1ccc(N2C(=O)CC(S/C(N)=N/N=C(\C)c3cccs3)C2=O)cc1 (centres undefined)	10%	1.7	-15	-41%[inhibitor]	-5%	-0.6%	6
O=C(N1CCCCCC1)N1CCN(C(=O)N2CCOCC2)CC1	-1%	1.9	0	-3%	0%[15.4 µM]	-6.4%	-8
O=C(CCNC(=O)C1CCN(S(=O)(=O)c2ccc(F)cc2)CC1)NCCc1cccc(F)c1	19%	.	9	19%	-4%	0.4%	-2
O=C(O)CSc1nnc(-c2ccc(Cl)cc2Cl)n1-c1ccc(Cl)cc1	23%	-7.6	4	-43%	-3%	.	-9
O=C(NCc1cccs1)c1ccc([N+](=O)[O-])cc1	-10%	-3.4	13	0%	10%	1.5%	-7
O=C1OC(NC(=O)c2ccccc2)C(n2cc(CO)nn2)=C1Cl (centres undefined)	4µM*	0.9	-17	6%	9%	-1.5%	25
O=C1c2ccccc2NC(c2ccccc2)N1CCCN1CCOCC1 (centres undefined)	8%	5.0	-1	-1%[15.4 µM]	1%	-9.7%	.
COc1cc(/C=C2\SC(=O)NC2=O)ccc1Oc1cnccn1	3%	0.6	-23	14%	?	-5.0%	-2
O=C(CCl)N(CCc1ccccc1)CCc1ccccc1	3%	4.6	1	?	-20%	-3.3%	-18
O=C(NCCO)C1CCN(S(=O)(=O)c2ccc(F)cc2)CC1	3%	-0.4	0	7%[15.4 µM]	2%	0.3%	3
C[C@H](NC(=O)c1ccccc1Cl)C(=O)OC(C(=O)Nc1cc(C(F)(F)F)ccc1Cl)c1ccccc1 (some centres undefined)	10%	1.7	0	16%	-10%	-2.8%	-2
O=C(CCC(=O)c1cccs1)NNC(=O)c1ccc(Cl)cc1	.	.	3	-23%	7%	-0.3%	8
CCCn1c(SCC(=O)NCCc2ccccc2)nnc1-c1ccccn1	9%	-0.8	-2	-21%	6%	-1.1%	6
c1ccc2[nH]c(-c3ccc4c(c3)OCO4)nc2c1	.	.	-5	-11%[15.4 µM]	0%	.	.
CCC1(c2ccccc2)NC(=O)N(CC(=O)N(C)Cc2c(F)cccc2Cl)C1=O (centres undefined)	6%	-4.4	-9	-1%[15.4 µM]	-10%	.	-3
Cc1cnc(NC(=O)c2cc3c(C)nn(-c4ccccc4)c3s2)s1	-12%	1.2	0	3%	-4%	?	-18
O=C(NC(=S)Nc1cc(Cl)ccc1Cl)c1ccco1	.	.	1	12%	.	0.3%	.
